GLA inh pH 4.5 – inhibitors of human alpha-galactosidase A at pH 4.5; AID 1467; purified enzyme, 4-MU-alpha-Gal fluorescence, pH 4.5; activity change, negative = inhibition, % at 105 µM; 230,000 tested, under 10 active; P06280; inconclusive = small, poorly fitted or top-dose-only inhibition, or a rising curve; inactive = flat fitted curve, though single readings scatter; no compound was filed as active;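 also: 0% = full activity with enzyme and -100% = basal without enzyme; dose as in the result columns while the protocol names 77 µM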
Rango-impB inh – Rango-importin beta binding inhibition; Q14974; Rango CFP/YFP FRET sensor + importin beta, 45 min; Potency, µM (titrated, usually from 92.2 µM), for inactives: top-dose inhibition of complex formation; 340,000 compounds, 0.031% hits; AID 540263; active = rising FRET ratio curve, often small or poorly fitted; inconclusive = mostly compound fluorescence or quenching in the first reads; inactive = flat curves in all reads;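 also: potency is read from the fitted curve at half-maximal effect; 0% = DMSO wells and 100% = buffer wells lacking importin beta; nearly all actives have a fitted effect of over 15% in size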
Target sequence (Q14974 whole entry, looked up): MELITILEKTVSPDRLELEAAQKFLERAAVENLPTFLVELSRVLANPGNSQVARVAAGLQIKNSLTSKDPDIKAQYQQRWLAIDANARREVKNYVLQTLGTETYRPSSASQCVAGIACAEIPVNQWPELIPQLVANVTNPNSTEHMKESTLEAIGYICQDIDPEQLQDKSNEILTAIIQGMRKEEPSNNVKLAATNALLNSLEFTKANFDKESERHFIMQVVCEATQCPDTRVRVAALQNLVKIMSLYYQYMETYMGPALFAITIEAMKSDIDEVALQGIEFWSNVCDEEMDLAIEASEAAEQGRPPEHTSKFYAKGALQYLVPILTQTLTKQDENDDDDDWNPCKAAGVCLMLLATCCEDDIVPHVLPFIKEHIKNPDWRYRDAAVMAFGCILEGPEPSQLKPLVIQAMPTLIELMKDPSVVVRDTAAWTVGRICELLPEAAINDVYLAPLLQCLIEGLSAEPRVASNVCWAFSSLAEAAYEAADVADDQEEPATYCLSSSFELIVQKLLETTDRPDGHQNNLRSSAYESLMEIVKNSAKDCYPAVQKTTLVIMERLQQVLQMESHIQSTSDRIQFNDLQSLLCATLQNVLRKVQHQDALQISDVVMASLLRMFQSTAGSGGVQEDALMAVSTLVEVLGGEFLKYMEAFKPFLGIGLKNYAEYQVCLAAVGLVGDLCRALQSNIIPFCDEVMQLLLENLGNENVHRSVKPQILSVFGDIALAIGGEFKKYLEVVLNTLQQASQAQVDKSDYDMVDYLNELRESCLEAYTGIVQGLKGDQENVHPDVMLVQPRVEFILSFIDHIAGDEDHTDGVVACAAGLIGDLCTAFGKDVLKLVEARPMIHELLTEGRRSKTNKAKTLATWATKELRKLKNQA
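FRET biosensor Rango (snurportin 1 IBB between N-terminal EYFP and C-terminal Cerulean), 50 nM in PBS/1 mM DTT/0.02% Tween-20/0.1% BSA, preincubated 5 min RT with compound; 0.125 microM importin beta added, 45 min RT, CFP/YFP FRET ratio read.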
Rango release inh – inhibition of RanGTP-driven Rango-importin beta dissociation; 340,000 compounds, 0.071% hits; Potency, µM (titrated, usually from 46.1 µM), without a hit: at the highest dose activity change, negative = inhibition; Biochemical FRET Rango-importin beta, RanGTP-induced dissociation; O95149+P62826; active means falling FRET ratio curve, often poorly fitted, with flat reads before Ran was added; inconclusive means other falling curves, or compound fluorescence or quenching; inactive means flat or rising ratio curve;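 also: potency is read from the fitted curve at half-maximal effect; % of control where 0% means no effect; nearly all actives have a fitted effect of over 45% in size; -100% = wells without RanGTP and RCC1; the record marks most hits as doubtful in a second field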
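Quantitative HTS using a FRET biosensor: 0.1 uM Rango, 0.25 uM importin beta, 0.6 uM Ran, 2 mM GTP, 0.2 uM RCC1 final, PBS with DTT, Tween-20 and BSA. Post-read taken 45 min after Ran addition.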
miR-21 reporter – raises the signal of a miR-21 reporter; HeLa miR-21 FLuc reporter, luciferase, 48 h; Potency, µM (doses to about 38.3 µM), for the others: at the highest dose reporter change, positive = more light; 340,000 tested, under 10 active; AID 2288; active = well fitted rising curve with a large enough effect; inconclusive = small, poorly fitted or top-dose-only effect; inactive = no such curve, though single readings can be large or run the other way;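 also: % of control where 0% means no effect; miR-21 action dims this reporter so a rising signal means less miR-21 action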
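Compounds were titrated across several concentrations (up to approximately 40 uM) and incubated 48 hours with HeLa miR-21-FLuc reporter cells (miR-21 target sequence downstream of FLuc, endogenous miR-21). Readout was firefly luciferase luminescence after lytic detection reagent.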
An asterisk follows results filed as active; ? = inconclusive; nt = not tested or not shown; & = joins results of further samples.

Start of the listing, in advance, 2 compounds:
SMILES | GLA inh pH 4.5 | Rango-impB inh | Rango release inh | miR-21 reporter
CC(NC(=O)CN(C)Cc1ccc(Br)cc1)c1ccccc1 (stereo unspecified) | nt | 2.6% | 1% | 4%
Cn1nnc2cc(C(=O)NC3CC3)ccc21 | -1 | 0.2% | -10% | 1%

The listing, from the first entry:
SMILES | GLA inh pH 4.5 | Rango-impB inh | Rango release inh | miR-21 reporter
CC(NC(=O)CN(C)Cc1ccc(Br)cc1)c1ccccc1 (stereo unspecified) | nt | 2.6% | 1% | 4%
Cn1nnc2cc(C(=O)NC3CC3)ccc21 | -1 | 0.2% | -10% | 1%
CN1C(=O)/C(=C2/C=Cc3ccccc3N2CCCS(=O)(=O)O)SC1=S | -1 | ? | 8% | -4%
Cc1ccc(CNC(=O)c2ccc3c(c2)S(=O)(=O)c2ccccc2C3=O)cc1 | nt | -2.7% | -7% | nt
Cn1nnc(NCc2cc(Br)ccc2OCc2ccccc2F)n1 | -7 | 0.8% | -4% | 0%
O=C(CCS(=O)(=O)c1ccccc1)Nc1ccccc1N1CCOCC1 | 5 | 3.5% | 10% | -5%
O=c1c2[nH]c3cccc(Cl)c3c2ncn1CCN1CCCCC1 | -2 | 0.5% | -11% | 3%
CCCNc1c(NC(=O)c2cccs2)c(=O)oc2ccccc12 | nt | 0.5% | 5% | 3%
CN1CCN(NC(=O)Nc2cc(Cl)cc(Cl)c2)CC1 | nt | 2.4% | 16% | 5%
CS(=O)(=O)N1CCc2cc(C(=O)N3CCN(c4ccccc4F)CC3)ccc21 | nt | -0.9% | -2% | -1%&3%
O=C(CN1CCOCC1)Nc1cccc(Br)c1 | -2 | 1.3% | 0% | -2%
O=C(CSC1=NCCN1)C1COc2ccccc2O1 (stereo unspecified) | -8 | 4.6% | -7% | 1%
CN(C)CC(=O)c1c(N)n(Cc2ccccc2)c(=O)n(C)c1=O | 0 | -1.2% | -1% | -2%
CCC(C)C(Nc1ncnc2scc(-c3ccccc3)c12)C(=O)O (stereo unspecified) | nt | 4.5% | 17% | -4%
O=C(COc1cccnc1[N+](=O)[O-])Nc1cc(Cl)ccc1Cl | nt | -1.3% | -4% | nt
Cc1ccc(S(=O)(=O)N2CCCCC2)cc1NC(=O)c1cc2ccccc2o1 | nt | -1.2% | 0% | nt
Cc1cc(=O)oc2cc(OCC(=O)NC3CCCC3)ccc12 | nt | 0.3% | 19% | 1%
CCOc1ccc(C(=O)SC2=NCCS2)cc1 | -4 | -2.2% | -3% | -6%
O=C(CCCn1c(=O)[nH]c2cc(Cl)ccc2c1=O)NCCC1=CCCCC1 | 13 | 0.7% | -5% | 0%
COc1ccc(C(CC(=O)NCCCN2CCOCC2)NS(=O)(=O)c2ccc(C)cc2)cc1 (stereo unspecified) | -4 | -2.3% | -10% | 0%
CCOC(=O)C1=NN(C(=O)c2ccccc2)C(O)(c2ccc(C)cc2)C1 (stereo unspecified) | -1 | 4.1% | -2% | -48%
CCN(CC)CCOC(=O)c1ccccc1Br | -6 | 1.4% | 7% | -4%
Cc1ccsc1/C=N/NC(=O)Nc1ccccc1 | 2 | -4.0% | 11% | -37%
Cc1ccc(C)c(NS(=O)(=O)c2cc(C(=O)NCc3ccccn3)ccc2C)c1 | nt | 3.3% | -13% | -2%
O=C(Nc1ccc(C(=O)N2CCCC2)cc1)Nc1ccc(Cl)cc1Cl | -2 | 3.3% | 6% | -12%
c1ccc(Cc2nnc3sc(C4COc5ccccc5O4)nn23)cc1 (stereo unspecified) | 0 | 3.5% | -7% | -10%
COc1ccc(NS(=O)(=O)c2ccc(C)c(C(=O)NCc3cccnc3)c2)cc1 | nt | -0.2% | 2% | 1%
CCn1nc(CC(=O)Nc2ccc(-n3cnnn3)c(OC)c2)c2ccccc2c1=O | -6 | -3.2% | 4% | -12%
COc1ccc(-n2c(SCC(=O)NCCCN3CCCC3=O)nnc2C(C)N2CCCCC2)cc1 (stereo unspecified) | 4 | -4.3% | 1% | -3%
Cc1ccccc1N1CCN(S(=O)(=O)c2ccccc2)CC1 | -2 | -6.4% | 0% | 0%&0%
CN(C(=O)CCNC(=O)Cn1cnc2ccccc2c1=O)c1ccc(F)cc1 | nt | -1.5% | 0% | -2%
Cc1cccc(OCCCC(=O)Nc2ccc(N(C)C)cc2)c1 | 1 | 4.6% | -11% | -55%
Cc1ccc(NC(=O)Cn2c(=O)c3cccn3c3ccccc32)c(C)c1 | nt | -2.3% | 2% | 0%
CN(C(=O)CNc1ccccc1Cl)C1CCS(=O)(=O)C1 (stereo unspecified) | nt | 3.5% | 5% | nt
Cc1c(C(=O)Nc2ccccc2[N+](=O)[O-])csc1-c1ccccc1 | -8 | -0.4% | -4% | -47%
COc1ccccc1OCCNC(=O)c1ccco1 | nt | -2.6% | -13% | -12%
COc1cc(C(F)(F)F)nc(-c2ccccn2)n1 | 11 | -2.5% | 3% | 4%
Nn1c(Cc2cccc3ccccc23)nnc1SC1CCOC1=O (stereo unspecified) | -7 | -1.0% | 7% | -1%
COC(=O)c1sc(S(=O)(=O)N2CCC(C(=O)O)CC2)c(C(=O)OC)c1C | 11 | -1.2% | -5% | -2%
O=C(NCCc1ccc(F)cc1)c1cc(=O)c2ccccc2o1 | -2 | ? | 4% | -5%
C[C@@H](C(=O)Nc1nc2ccccc2s1)N1C(=O)C2CC=CCC2C1=O (stereo partly specified) | -19 | -1.4% | 22% | -7%
CC1(C)CC(C(=O)NCCC(c2ccccc2)c2ccco2)CCO1 (stereo unspecified) | 4 | 2.1% | -6% | -5%
CNc1cnn(-c2ccc(C)cc2)c(=O)c1Sc1ccc(C)cc1 | -24 | -5.2% | ? | -13%
COC(=O)c1[nH]c2ccc(C)cc2c1NC(=O)CN1CCN(C(=O)c2ccccc2)CC1 | 0 | -2.2% | 4% | 7%
C/C(=N\NC(=O)c1cc(C)nc2ccccc12)c1ccncc1 | nt | -0.3% | 1% | 15%
COc1ccc(CNC(=O)CN2C(=O)C(C)N(c3ccc(C)cc3)C2=O)cc1 (stereo unspecified) | -5 | 0.6% | -5% | -5%
O=C(CN(Cc1ccccc1)S(=O)(=O)c1ccc(F)cc1)NCc1ccncc1 | nt | -0.6% | 2% | -2%
CC(C)Nc1nc(Cl)nc(NC2CCCCC2)n1 | nt | 1.7% | -14% | -10%
COc1nc(OC)nc(N2CCC(NC(=O)C(Cc3cccc(OC)c3OC)NC(C)=O)CC2)n1 (stereo unspecified) | 6 | -1.9% | 14% | -6%
O=C1Cc2ccccc2Sc2ccccc21 | -2 | 0.5% | -1% | -11%

Additional records
SMILES | GLA inh pH 4.5 | Rango-impB inh | Rango release inh | miR-21 reporter
COc1ccc(OC)c(-c2c(=O)n(OCc3ccccc3Br)c3ccccc3[n+]2[O-])c1 | -10 | -3.4% | 9% | -3%
CCOc1ccc(NC(=O)Cc2ccc(NC3=NC4CS(=O)(=O)CC4S3)cc2)cc1 (stereo unspecified) | nt | 4.5% | -4% | -3%
COc1ccc(CCNC(=O)C2CC(=O)N(c3ccc(Br)cc3)C2)cc1OC (stereo unspecified) | 3 | 2.0% | 48% | -2%
COc1ccccc1N1CCN(C(=O)c2ccc(-c3ccc(Cl)cc3)o2)CC1 | nt | ? | 22% | nt
CN(c1ccccc1)S(=O)(=O)c1ccc(NC(=O)COc2ccccc2)cc1 | nt | -4.2% | 7% | -4%
COc1cccc(-n2nnc3c(=O)n(Cc4cccc(F)c4)cnc32)c1 | -13 | -0.2% | 11% | -1%
CC(C)c1nc2oc3c(N4CCN(C)CC4)ncnc3c2c2c1CCC2 | 4 | -0.8% | 1% | -8%
c1ccc(-c2noc(-c3ccccc3-c3ccccc3)n2)cc1 | 5 | -4.4% | 7% | -3%
CCn1c(NC2CCCCC2)nc2ccccc21 | -1 | 2.2% | -5% | -5%
c1ccc(COc2ccccc2CNC23CC4CC(CC(C4)C2)C3)cc1 | 4 | -1.9% | 4% | ?
COc1c(/C=N/NC(N)=S)c(C)nn1-c1ccccc1 | -7 | -5.3% | 1% | -14%
O=C(c1ccccc1F)N(Cc1ccc2c(c1)OCO2)Cc1cc2cc3c(cc2n2nnnc12)OCO3 | 1 | -4.3% | 6% | -12%
COCC(C)N1CCC(n2nccc2NC(=O)c2ccc3c(c2)OCO3)CC1 (stereo unspecified) | nt | -1.1% | -4% | -2%
C[C@H](CO)N1C[C@H](C)[C@@H](CN(C)C(=O)Nc2ccccc2)Oc2c(cccc2N(C)C)C1=O | nt | -0.9% | -24% | nt
O=c1c(C=NCc2cccnc2)c(C(F)(F)F)[nH]n1-c1nc2ccccc2s1 | -4 | 0.0% | 1% | -1%
CC(C(=O)Nc1ccc([N+](=O)[O-])cc1)N1CCN(C/C=C/c2ccccc2)CC1 (stereo unspecified) | -4 | 2.2% | -4% | 4%
Cc1ccc(-c2nc(N/N=C/c3ccccc3[N+](=O)[O-])c3ccccc3n2)cc1 | -21 | 0.6% | -6% | -31%
CCN(CC)/C(=N/O)NC(=O)NS(=O)(=O)c1ccc(C)cc1 | 5 | 3.6% | 7% | 0%
CCc1c(O)nc(SCC(=O)N2CCOCC2)n(-c2ccccc2)c1=O | -15 | 5.5% | -1% | -2%
COc1cccc(NC(=S)NN2CCN(C)CC2)c1 | 10 | -0.7% | -5% | -31%
O=C(O)CCCC(=O)Nc1ccc(Br)cc1C(=O)O | -7 | 1.4% | 0% | 1%
COCCN(C(=O)COC(=O)C1(c2ccccc2)CC1)c1c(N)n(CC(C)C)c(=O)[nH]c1=O | nt | -6.3% | -7% | nt
COc1cccc(OC)c1C(=O)Nc1nc2ccc(S(C)(=O)=O)cc2s1 | 0 | 8.4% | 18% | -1%
O=C1CSC(c2cccc(F)c2)N1c1ccccc1F (stereo unspecified) | -10 | 0.5% | ? | -11%
COc1ccc(-c2cn(CC3CCCCC3)nn2)cc1 | nt | -2.9% | 2% | -33%
CCOc1cc(/C=N/NC(=O)CSc2cccc3cccnc23)ccc1O | -7 | -0.6% | 33% | -13%
Cc1ccc(-c2nc3ccc(NS(=O)(=O)c4ccccc4)cc3[nH]2)o1 | 2 | 0.5% | -11% | -38%
Cc1cc2c3nonc3ccc2n1-c1ccccc1 | -8 | 2.6% | -2% | -20%
Oc1cccc(CCC2CCCCN2Cc2cn[nH]c2-c2ccc3c(c2)OCO3)c1 (stereo unspecified) | 4 | 0.0% | 14% | -8%
Cc1cc(Br)cc(Br)c1OCC(=O)NNC(=O)c1ccoc1C | nt | -0.3% | -8% | 5%
O=S(=O)(NC1CCCCC1)c1ccc(F)c2ccccc12 | -3 | 0.7% | -7% | 11%
CC1CCCCN1S(=O)(=O)c1ccc(C(=O)N2CCOCC2)cc1 (stereo unspecified) | nt | -0.3% | -15% | 4%
CCOc1ccccc1NC(=O)CSc1nccn1-c1ccccc1 | 4 | 2.0% | -11% | -5%
O=C(NCc1cccc(Cl)c1)C1CCC(=O)N(C2CC2)C1 (stereo unspecified) | nt | 3.1% | 0% | 1%
Cc1ccc(N(CC(=O)NC(C)(C)C)C(=O)CCC(=O)Nc2nccs2)cc1C | nt | 3.7% | 5% | 0%
COC(=O)c1[nH]c2cc(OC)ccc2c1N | 4 | 2.1% | 1% | -4%
NC1=NC(=O)C(c2ccccc2)C(=O)N1 (stereo unspecified) | nt | -2.9% | 3% | nt
Cn1cccc1C(=O)C(=O)Nc1ccccc1 | 8 | 3.7% | 1% | -29%
CC(C)CCN(CC(=O)NC1CCCC1)C(=O)C(=O)Nc1ccc2c(c1)OCCO2 | nt | -3.4% | 0% | 0%
Cc1c(OCC(N)=O)ccc2c(-c3ccccc3)cc(=O)oc12 | nt | -1.1% | 6% | -20%
CCOc1cc(C2NC(=O)NC(C)=C2C(=O)OCC2CCCCC2)ccc1O (stereo unspecified) | nt | 3.5% | 0% | -11%
COCCn1c(=N)c(C(=O)NCc2ccco2)cc2c(=O)n3cc(C)ccc3nc21 | 4 | ? | ? | -2%&-5%

Screens deposited in PubChem BioAssay by National Center for Advancing Translational Sciences (NCATS).

These rows are one share of the data, so the mix of outcomes need not match the whole.
